# CHT block – human CHT choline transport inhibition; Q9GZV3; CHT-expressing cells, membrane potential dye, choline response; active compounds read low; B-score at 10 µM; 310,000 tested, 0.86% active; AID 488975;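 active = B-score over 3 SD under the library average, and starting fluorescence ratio not unusually high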;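 note: choline stimulus applied at its EC90 after an EC20 pre-addition; B-score computed on integrated fluorescence ratio after choline addition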
# Target sequence (Q9GZV3 whole entry, looked up): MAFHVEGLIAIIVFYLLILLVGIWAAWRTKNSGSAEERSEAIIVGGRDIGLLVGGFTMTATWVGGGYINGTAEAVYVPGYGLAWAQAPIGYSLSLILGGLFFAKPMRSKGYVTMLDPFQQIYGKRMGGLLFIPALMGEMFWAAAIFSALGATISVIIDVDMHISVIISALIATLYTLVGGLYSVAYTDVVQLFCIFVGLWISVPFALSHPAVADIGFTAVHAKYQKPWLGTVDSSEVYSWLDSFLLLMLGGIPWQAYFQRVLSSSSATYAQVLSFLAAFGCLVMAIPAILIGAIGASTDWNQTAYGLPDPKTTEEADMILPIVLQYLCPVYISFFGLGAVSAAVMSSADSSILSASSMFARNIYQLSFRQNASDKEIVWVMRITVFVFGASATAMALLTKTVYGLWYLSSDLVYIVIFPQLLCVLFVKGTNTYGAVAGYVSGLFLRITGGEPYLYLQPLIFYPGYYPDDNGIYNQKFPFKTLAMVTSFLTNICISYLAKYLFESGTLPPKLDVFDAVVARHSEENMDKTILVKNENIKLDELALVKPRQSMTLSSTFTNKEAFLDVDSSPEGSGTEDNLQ
# Calls only; i = inactive.
mol | CHT block
O=C(/C=C1\SC(=O)NC1=O)Nc1ccc(C(=O)O)cc1 | i
c1ccc2c(C[C@@H]3CNCCN3CC3CCCCC3)cccc2c1 | i
CCN(CC)CCN(Cc1cc2cc3c(cc2[nH]c1=O)OCO3)C(=S)NCC1CCCO1 (stereo not given) | i
O=C(N[C@@H](Cc1ccccc1)C(=O)NC1CCCCC1)c1ccco1 | i
O=C(COc1cccc(F)c1)NNC(=O)c1cccc(-n2cccc2)c1 | i
CCOc1ccc2c(c1)/C(=N/N1C(=O)c3ccccc3C1=O)C(=O)N2 | i
COc1ccc(NC(=O)c2nc(-n3nc(C)cc3C)ccc2Cl)cc1Cl | i
Cc1ccc(N2CCN(S(=O)(=O)c3ccc4c(c3)NC(=O)C(C)C(=O)N4)CC2C)cc1 (stereo not given) | i
Cc1ccc(C(=O)OCC(=O)N(CC(C)C)c2c(N)n(Cc3ccccc3)c(=O)[nH]c2=O)s1 | i
COc1ccc(Cl)cc1NC(=O)C1CCCO1 (stereo not given) | i
Cc1cc(/C=C2\C(=N)N3N=C(c4ccco4)SC3=NC2=O)c(C)n1Cc1ccccc1 | i
Cc1ccc(C(=O)NC(NCC2CCCO2)C(Cl)(Cl)Cl)cc1 (stereo not given) | i
O=S(=O)(c1ccccc1C(F)(F)F)N1CCN(CC(O)COc2ccccc2F)CC1 (stereo not given) | i
COC(=O)c1ccccc1NC(=S)NC(NC(=O)c1ccco1)C(Cl)(Cl)Cl (stereo not given) | i
CCOc1ccc(Nc2ccc3nonc3c2[N+](=O)[O-])cc1 | i
CCN(C(=O)CSc1ccc2ccccc2n1)C1CCS(=O)(=O)C1 (stereo not given) | i
COc1ccc(NC(=O)C(OC(=O)c2cnc(C)cn2)c2ccccc2)cc1Cl (stereo not given) | i
c1ccc(C2CN3CCSC3=N2)cc1 (stereo not given) | i
COc1ccc(S(=O)(=O)N(CCc2ccccc2)CC(=O)O)cc1C | i
O=c1ccc(-c2ccc(S(=O)(=O)Nc3ccc(F)cc3)o2)n[nH]1 | i
COc1ccc(-c2csc(C)n2)cc1Br | i
CC(C)(C)OC(=O)N1CCC(Cc2cc(-c3ccc(Cl)cc3)no2)(C(=O)O)CC1 | i
CCOCN(C(=O)Cn1c(COC)nc2ccccc21)c1c(C)cccc1CC | i
COc1ccc(C(=O)N(Cc2cccs2)C2CCS(=O)(=O)C2)cc1 (stereo not given) | i
CCN(CC)CCOCCOc1ccccc1F | i
Cc1cccc(/C=C/c2onc(C)c2S(=O)(=O)N2CCC(C(=O)N3CCCCCC3)CC2)c1 | i
Cc1ccc(S(=O)(=O)CC(=O)N(CCCN(C)C)c2nc3ccc(C)cc3s2)cc1 | i
COc1cccc(N2CCN(C(=O)C3CCN(S(=O)(=O)c4cccs4)CC3)CC2)c1 | i
CC/C(=N/N=C(\CC)c1ccccc1)c1ccccc1 | i
Cc1ccc(C)c(NC(=O)c2ccc3nccnc3c2)c1 | i
NS(=O)(=O)c1ccc(CNC(=O)c2ccccn2)cc1 | i
O=C(Nc1cc(S(=O)(=O)N2CCOCC2)ccc1N1CCCC1)C1COc2ccccc2O1 (stereo not given) | i
CCc1c(C)nc(SCC(=O)NNC(=O)Cc2ccc(OC)cc2)[nH]c1=O | i
COc1ccc2c(c1)C=C(C(=O)OCc1cccnc1)CO2 | i
CN(C)c1ccc(C(CNC(=O)c2ccc(C#N)cc2)c2c[nH]c3ccccc23)cc1 (stereo not given) | i
O=C(Nc1ccccc1C(=O)O)c1ccc(NC(=O)C2CCCCC2)cc1 | i
CCOC(=O)c1ccc(N2C(=O)c3cccc4c(C(=O)O)ccc(c34)C2=O)cc1 | i
COc1ccc(-c2nc(N)n(C(=O)c3ccc(C)cc3)n2)cc1 | i
COc1ccc(C2=NOC3(CC(=O)N(c4ccc(C)cc4)C3=O)C2)c(OC)c1 (stereo not given) | i
CCN(C(=O)CN1CCN(c2cccc(C(F)(F)F)c2)CC1)c1c(N)n(Cc2ccccc2)c(=O)[nH]c1=O | i
CCCCCCSc1ccc(-c2nc3ccc(C)cn3c2NC2CCCCC2)cc1 | i
O=C(CCN1C(=O)c2ccccc2C1=O)Nc1nc2ccccc2s1 | i
Cc1nc2ccccc2c(=O)n1NC(=O)Cc1ccc(Br)cc1 | i
CCCC(C(=O)NCc1ccco1)N(C(=O)CNS(=O)(=O)c1ccccc1)c1ccc(OC)cc1 (stereo not given) | i
COc1cc(NS(=O)(=O)c2ccc(N/C=C(\C=O)c3nc4cc(Cl)ccc4o3)cc2)nc(OC)n1 | i
OCCN(CC#CC(O)(c1ccccc1)C1CCCCC1)CCO (stereo not given) | i
O=C(NCCc1ccccc1)C(=O)NCC1OCCN1S(=O)(=O)c1ccc(F)cc1 (stereo not given) | i
O=C1NC(NS(=O)(=O)c2ccccc2)(C(F)(F)F)C(=O)N1Cc1cccnc1 (stereo not given) | i
CCCCOC(=O)C1=C(C)Nc2ncnn2C1c1cccc(OC)c1 (stereo not given) | i
COc1ccc(C(=O)OCC(=O)NCc2ccc3c(c2)OCO3)cc1[N+](=O)[O-] | i
CCN(CC)S(=O)(=O)c1ccc(N2CCOCC2)c(NC(=O)CC2OC(=O)c3ccccc32)c1 (stereo not given) | i
O=C(CSc1ncnc2c1nnn2-c1ccc(F)cc1)NCC1CCCO1 (stereo not given) | i
CCCc1cc(N2CCCC(C(=O)NCc3ccc4c(c3)OCO4)C2)n2ncnc2n1 (stereo not given) | i
O=C(CSc1nnc(NC(=O)c2ccco2)s1)NC1CCCCC1 | i
Cc1cccc(C(=O)Nc2ccc(Oc3cnccn3)cc2)c1 | i
Clc1ccc(C(c2nnnn2C2CCCC2)N2CCSCC2)cc1 (stereo not given) | i
O=C1OC(Nc2ncccn2)c2ccccc21 (stereo not given) | i
O=C(CSCc1ccccc1)N1CCc2ccccc21 | i
O=C(CN1CCc2ccccc2C1)Nc1ccc(F)cc1F | i
Cc1ccc2[nH]c(=O)c(CN(Cc3ccccc3Cl)C(=O)N3CCOCC3)cc2c1 | i

# Reprinted from the part before: three compounds, followed by the next part.
mol | CHT block
O=C(CSCc1ccccc1)N1CCc2ccccc21 | i
O=C(CN1CCc2ccccc2C1)Nc1ccc(F)cc1F | i
Cc1ccc2[nH]c(=O)c(CN(Cc3ccccc3Cl)C(=O)N3CCOCC3)cc2c1 | i
CC(C)OP(=O)(OC(C)C)C(NC(=O)c1ccccc1Br)C(N)=O (stereo not given) | i
CCOC(=O)c1cnc(SCc2nc(N)nc(Nc3ccccc3OC)n2)nc1N | i
O=C(Nc1ccccc1C(=O)NCCCN1CCOCC1)c1ccccc1 | i
CCC(CC)C(=O)NN(C(=O)c1ccncc1)C1CC(=O)N(c2ccccc2)C1=O (stereo not given) | i
COC(CNC(=O)c1cn(C)c2ccc(S(=O)(=O)N(C)C3CCCCC3)cc2c1=O)OC | i
COc1cccc(S(=O)(=O)N2CCN(C(=O)c3ccco3)CC2)c1 | i
COCCOC1CCN(C(=O)C2CCC(=O)N(CCc3ccc(OC)cc3)C2)CC1 (stereo not given) | i
N#Cc1ccc(-n2c(-c3ccccc3)nnc2-c2ccccc2)cc1C#N | i
Cc1ccc(C(=O)OCc2c(C)noc2C)cc1NC(=O)c1ccco1 | i
Cc1cccc(NC(=O)c2cccc(OC(=S)N3CCOCC3)c2)c1 | i
Cc1ccccc1-c1n[nH]c(=S)n1Cc1ccccc1 | i
COc1cc([N+](=O)[O-])ccc1NC(=O)C[n+]1ccccc1 | i
COc1ccc(CCC(=O)OCC(=O)c2cccc(OC)c2)cc1 | i
NC1=NC(=O)CC(C(=O)NCCc2ccccc2)S1 (stereo not given) | i
Cc1cc(CN(C)C(=O)CC2C(=O)NCCN2Cc2ccc(F)c(F)c2)on1 (stereo not given) | i
O=C(Nc1ccc(Br)c2cccnc12)c1ccc(Cn2cc([N+](=O)[O-])cn2)o1 | i
COc1ccc([N+](=O)[O-])cc1N(CC(O)CN1CCCC1)S(=O)(=O)c1ccc(C)cc1 (stereo not given) | i
CCNc1nc(NCC)nc(N/N=C/c2ccc(Br)cc2)n1 | i
Cc1cc(C)c2c(=O)n(CC(=O)Nc3ccc(Br)c(C)c3)sc2n1 | i
CCOc1ccc(S(=O)(=O)N2CCN(c3ccccn3)CC2)cc1 | i
COC(=O)COc1ccc(S(=O)(=O)N2CCN(c3ccccc3F)CC2)cc1C | i
Nc1nc(SCC(=O)N2CCCCC2)[nH]c(=O)c1NC(=O)c1cccs1 | i
CC(=O)NC1=C(N(C)C2CCS(=O)(=O)C2)C(=O)c2ccccc2C1=O (stereo not given) | i
O=C(Nc1ccc(N2CCCCC2)cc1)c1ccc(F)cc1 | i

# An excerpt of these results, with values ahead of the structure:
CHT block,canonical_smiles
i,COc1ccc(CCC(=O)OCC(=O)c2cccc(OC)c2)cc1
i,CCNc1nc(NCC)nc(N/N=C/c2ccc(Br)cc2)n1
i,CCOc1ccc(S(=O)(=O)N2CCN(c3ccccn3)CC2)cc1
i,CC(=O)NC1=C(N(C)C2CCS(=O)(=O)C2)C(=O)c2ccccc2C1=O (stereo not given)
i,COC(=O)COc1ccc(S(=O)(=O)N2CCN(c3ccccc3F)CC2)cc1C

# Other records.
mol | CHT block
CCOc1cc2[nH]c(=O)n(CCCCC(=O)N3CCCCCC3)c(=O)c2cc1OCC | i
CCc1noc(C)c1C(=O)Nc1cccc(S(=O)(=O)N(C)c2ccccc2)c1 | i
COC(=O)C1=NN(C(=O)c2ccc(C)cc2)C(O)(c2ccc(Cl)cc2)C1 (stereo not given) | i
COCc1cc(C)nc(SCc2ccccc2Cl)c1C#N | i
CC1CCN(S(=O)(=O)c2nnc(NC(=O)c3ccccc3Br)s2)CC1 | i
O=c1c2cccc(Cl)c2nc2n1Cc1ccccc1-2 | i
N#Cc1c(F)cccc1N1CCC(C#N)CC1 | i
CSc1ccc(Cl)c(C(=O)NCCOc2cc(C)ccc2C(C)C)c1 | i
COC(=O)C(CC(C)C)NC(=O)c1ccc([N+](=O)[O-])cc1 (stereo not given) | i
CN(C)S(=O)(=O)c1ccc(N2CCCC2)c(C(=O)Nc2nc(-c3ccc(F)cc3)cs2)c1 | i
CCOC(=O)c1c(C)[nH]c(C(=O)OCC(=O)Nc2cc(Cl)ccc2OC)c1C | i
COc1ccc(/C=C2\SC(=S)N(CCCC(=O)N3CCN(C)CC3)C2=O)cc1 | i
O=C(CN1CCCN(Cc2ccc(F)cc2Cl)C1=O)NCc1ccccc1 | i
CCOC(=O)c1cc(-c2ccccc2)n(CCC(=O)N2CCN(c3ccccn3)CC2)c1C | i
CNC(=O)N(C1=NCCCCC1)c1ccc(Br)cc1 | i
O=C(O)CCC(=O)Nc1ccccc1N1CCOCC1 | i
COC(=O)Nc1cc(C(F)(F)F)ccc1N1CCN(c2ccccc2)CC1 | i
CC(=O)NS(=O)(=O)c1ccc(NC(=O)NC2CCCCC2)cc1 | i
Cc1ccc(C(=O)NC(=S)Nc2ccc3c(c2)OCCO3)c(C)c1 | i
O=C(NCc1cccnc1)NC1CCCN1S(=O)(=O)c1ccc(Cl)cc1 (stereo not given) | i
COc1ccc(/C=C/C(=O)Nn2cnnc2)cc1 | i
C=CCOc1ccc(/C=C(\C#N)C(=O)Nc2ccccn2)cc1OC | i
CCOC(=O)c1sc(=NC(=O)c2cc(OC)c(OC)c(OC)c2)n(C)c1C | i
O=S(=O)(c1ccc(Oc2ccc(S(=O)(=O)N3CCOCC3)cc2)cc1)N1CCOCC1 | i
CCN1CC(CN(C)Cc2cn(-c3ccc(C)cc3)nc2-c2cccc(C)c2)CC1=O (stereo not given) | i
CCC(=O)N(CC(=O)Nc1sc(C)c(C)c1C(N)=O)C1CCCCC1 | i
Nc1ccc2nc(CCCO)[nH]c2c1 | i
CC(C)C(=O)Nc1cccc(NC(=S)NC(=O)c2cccs2)c1 | i
O=C(c1cccc(S(=O)(=O)N2CCOCC2)c1)N1CCN(c2ccc(F)cc2)CC1 | i
COc1ccc(C(C)=O)cc1Cn1nc(C)c([N+](=O)[O-])c1C | i
Nc1nc(Sc2c([N+](=O)[O-])cc(C(F)(F)F)cc2[N+](=O)[O-])n[nH]1 | i
CC(c1ccco1)N(C(=O)C12CC3CC(CC(C3)C1)C2)c1ccccn1 (stereo not given) | i
O=C(NCCN1CCN(c2ccccc2)CC1)C1CCN(S(=O)(=O)c2cccc3nonc23)CC1 | i
CN(C)S(=O)(=O)c1ccc(C(=O)NCC2CC2(Cl)Cl)cc1 (stereo not given) | i
O=C(CSc1nncn1-c1cccnc1)Nc1ccccc1C(F)(F)F | i
CN1CCc2c(sc(NC(=O)c3ccc(S(=O)(=O)N4CCCCCC4)cc3)c2C(N)=O)C1 | i
COc1ccc2ccccc2c1/C=N/Nc1cccc(C(=O)O)c1 | i
C=CCn1cnc2c(nnn2-c2ccc(C)c(C)c2)c1=O | i
CCOC(=O)CCC(=O)N1CCOCCOCCN(C(=O)CCC(=O)OCC)CCOCCOCC1 | i
O=c1c(Br)c(NCc2ccccc2)cnn1-c1ccc(F)cc1 | i
CS(=O)(=O)N1CCN(C(=O)c2cc(-c3ccncc3)nc3ccc(Cl)cc23)CC1 | i
Cc1ccc(CNC(=O)CN(C)S(=O)(=O)c2ccc(F)cc2)cc1 | i
CCCNS(=O)(=O)c1ccc(NC(=O)Cc2cccs2)cc1 | i
CNC(=O)Nc1ccc2nc(C)sc2c1 | i
CC(=O)C12CCCCC1CC1C3CC(C)C4(O)CC(=O)CCC4(C)C3CCC12C (stereo not given) | i
CC(C)(C)C(=O)Nc1ccc2c(c1)-c1cc(NC(=O)C(C)(C)C)ccc1C2 | i
Cc1cc(OCc2nc(-c3cccs3)no2)cc(C)c1Cl | i
O=C(C1CCN(S(=O)(=O)c2cccs2)CC1)N1CCCCCC1 | i

# These rows are one share of the data, and most or all hits are left out here.
